VACV E9 pol inh – blocks vaccinia virus processive DNA synthesis | AID 493162 | in vitro processive DNA synthesis, absorbance read-out; active compounds read low; some inactives read as strong as hits | 46,000 tested, 0.94% active | normalized absorbance, % (concentration not given with the values);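 active = replicate mean up to 90% and picked by the depositor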;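 note: 100% = median of the test wells of a plate; 100 nL library stock went into each well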
Numbers without * were called inactive. Not all compounds are listed; count on the stated rates, not on these rows.

SMILES	VACV E9 pol inh
CCN(CC)P1(=O)COc2ccccc2OC1	100.3
COC[C@H]([C@@H](O)[C@@H](O)C(=O)NCC[C@@H](C)c1nc(/C=C/C[C@H]2OC3(C[C@H](O)[C@H]2C)OC([C@@H](C[C@@H](O)[C@@H](C)[C@@H](O)[C@@H](C)/C=C(C)/C(C)=C/C=C/C(C)=C\C#N)OC)[C@@H](OP(=O)(O)O)C3(C)C)co1)N(C)C (stereo partly specified)	98.8
CC(=O)N1C(=O)CC(C)N(C(C)=O)c2ccccc21 (stereo unspecified)	100.0
N#Cc1c(N)nc2c3c1NC(O)(c1ccccc1)C(C#N)C3c1cc(Br)ccc1O2 (stereo unspecified)	91.9
CCOC(=O)c1c[nH]c2c(F)cc(F)cc2c1=O	91.3
CSc1nccc(-c2c(-c3ccc(Cl)cc3)noc2C)n1	100.6
CC1CC2=C(CC1(CO)CO)C(C)(C)CCC2 (stereo unspecified)	100.6
N#Cc1ccc(Oc2ccc(F)cc2)cc1	95.1
O=S(=O)(c1ccccc1)N1CCN(C(c2ccccc2)c2ccccc2)CC1	101.4
CCc1ccc(C(=O)c2c(S(=O)(=O)CC)c(S(=O)(=O)CC)c3cc(C(C)(C)C)ccn23)cc1	99.3
O=c1cc(-c2ccccc2)[nH][nH]1	100.3
O=c1[nH]cc(N=Cc2ccncc2)c(=O)[nH]1	100.7
CC(C)NC(=O)c1cccc(Cl)c1	100.6
Brc1ccc(-c2nnc3sc(CNCc4ccc5c(c4)OCO5)cn23)cc1	91.4
C=CCNc1cc(C)nc2nncn12	106.2
CC1(C)CC2CC(C)(CN2S(=O)(=O)c2ccc(F)cc2F)C1 (stereo unspecified)	107.2
CCOC(=O)Cn1nnc(-c2ccc(OCc3ccccc3F)cc2)n1	103.1
CC(C)CCNc1ncc2c(n1)CC(c1ccccc1Cl)CC2=O (stereo unspecified)	99.1
COc1ccc(OC)c(C2c3cccn3CCN2C(=S)NC(C)(C)C)c1 (stereo unspecified)	101.9
COc1ccc(C(=O)Nc2sc3c(c2CN(C)C)CCCC3)cc1	98.4
COc1ccc(OC)c(S(=O)(=O)Nc2cc(Cl)ccc2OC)c1	102.1
CC(C)(C)NCC(O)c1cc(Cl)c(N)c(Cl)c1 (stereo unspecified)	101.1
Cc1c(N=Cc2cc(Br)cc(Br)c2O)cccc1C(=O)O	44.9*
COc1ccc(C)cc1S(=O)(=O)N1CCN(C)CC1	100.3
CCCc1c(C(=O)Nc2ccc(N3CCCCC3)cc2)cnn1-c1ccccc1	97.4
CCC(=O)Nc1ccc(C(=O)n2ccc(C)n2)cc1	106.1
CCOC(=O)c1cnn2c(C(F)(F)F)cc(-c3ccc(OC)cc3)nc12	100.2
Cc1cc(C)c2c(=O)n(CC(=O)NC(C)c3ccccc3)sc2n1 (stereo unspecified)	100.7
O=C(CC1(O)C(=O)N(Cc2ccccc2)c2ccccc21)c1ccc(Br)s1 (stereo unspecified)	89.9
CCN(CC)S(=O)(=O)c1ccc(Cl)c(C(=O)N2c3ccccc3Sc3ccccc32)c1	102.0
CCCC(=O)Nc1c2c(nn1-c1ccc(OC)cc1)CSC2	99.7
O=C1CSC(c2ccc(Cl)cc2)N1Nc1nc(Nc2ccccc2)nc(N2CCCCC2)n1 (stereo unspecified)	100.3
Cc1ccccc1NC(=O)/C=C/c1ccc2c(c1)OCO2	99.8
CC1(C)CC(=O)c2sc(NC(=O)c3cc(=O)c4ccccc4o3)nc2C1	99.6
CN1CCC(N(C)C(=O)c2cn(-c3ccccc3)nc2-c2cccs2)CC1	98.6
CC1=NCCN1CCNC(=O)Nc1ccc(F)cc1	89.2
Brc1ccc(-c2ccc(C3CCCCC3)cn2)cc1	90.9
O=C(ON(Cc1c(F)cccc1Cl)Cc1c(F)cccc1Cl)C1CC1	111.6
CNC(=O)NC(=O)CSc1nnc(-c2ccncc2)n1Cc1ccccc1	103.1
CCOC(=O)C(C)n1cnc2c(cnn2-c2ccc(F)cc2)c1=O (stereo unspecified)	96.9

In the list so far, these have a thiophene ring, fused or not.
SMILES	VACV E9 pol inh
COc1ccc(C(=O)Nc2sc3c(c2CN(C)C)CCCC3)cc1	98.4
O=C(CC1(O)C(=O)N(Cc2ccccc2)c2ccccc21)c1ccc(Br)s1 (stereo unspecified)	89.9
CN1CCC(N(C)C(=O)c2cn(-c3ccccc3)nc2-c2cccs2)CC1	98.6

The listing continues.
SMILES	VACV E9 pol inh
CC1CCc2cc(F)cc3c(O)c(C(=O)Nc4ccccn4)c(=O)n1c23 (stereo unspecified)	97.9
Cc1cc2nnc(SCC(=O)NCC(C)C)n2c2ccccc12	106.3
C=CCNC(=O)C#Cc1ccccc1	99.9
C=CCSC1=C(C#N)C(c2ccccc2Cl)CC(=O)N1 (stereo unspecified)	94.3
N#CC1=C(S)N=C(N)C(c2nc(-c3ccccc3)cs2)C12CCCCC2 (stereo unspecified)	100.6
CC1CCc2ccccc2N1C(=N)N(C)C (stereo unspecified)	100.2
CC1CCCCN1Cc1cn2c(-c3ccc(Br)cc3)nnc2s1 (stereo unspecified)	101.1
Cc1cc(NC(=O)CCC2CCCCC2)no1	98.1
Cc1c(C)n(CC(O)CNC2CCCCC2)c2ccccc12 (stereo unspecified)	99.9
COc1ccc(C(=O)NCc2ccc3[nH]c(C)cc3c2)cc1OC	94.4
O=C(NCc1csc(-c2ccccc2)n1)c1ccco1	100.4
CCOC(=O)c1ccc(CC2SC(N)=NC2=O)cc1 (stereo unspecified)	127.0
O=C1CCCc2c1[nH]c1ccc(-c3ccccc3)cc21	98.0
CC1=C(C(=O)Nc2ccc(C(=O)NCc3ccc4c(c3)OCO4)cc2)SCCO1	102.8
CC1=NN(c2cccc(Cl)c2)C(=O)C1	96.5
CCN1CCCC1CNCc1c(C(=O)O)n(Cc2ccccc2C)c2ccccc12 (stereo unspecified)	106.1
c1ccc([S+]2c3ccccc3Nc3ccccc32)cc1	104.0
Cn1cc(CCC(=O)NCCCc2ccccc2)c2ccccc21	107.2
Nc1cccnc1NCc1ccccc1	91.1
Cc1ccccc1/C=C/c1c[nH]c2ccccc12	101.4
CCC1=NC(C(F)(F)F)(C(F)(F)F)C2=C(CC(C)(C)CC2=O)N1Cc1ccccc1	97.7
Cc1cc(C)cc(NC(=S)Nc2cc(C)cc(C)c2)c1	94.6
O=C(Nc1ccc(Cl)cc1)c1ccc(CSC2=NCCS2)cc1	96.0
CC(=O)N1C2C=CC(C2)C1(C(F)(F)F)C(F)(F)F (stereo unspecified)	98.5
CC(Nc1nc(Nc2ccc(F)cc2)nc(SCC(=O)Nc2ccc(F)cc2)n1)c1ccccc1 (stereo unspecified)	99.9
Cc1cccc(NC(=O)C(C)C(=O)c2ccccc2)c1 (stereo unspecified)	87.2
CC(C)(C)N1C(=O)NC(=O)/C(=C\c2cn(Cc3ccccc3)c3ccccc23)C1=O	99.8
Cc1cc(N2CCC(C(=O)Nc3cccnc3Cl)CC2)n2nc(C)c(-c3ccc(Cl)cc3)c2n1	102.6
c1ccc(CCc2ccccn2)nc1	102.1
O=C(O)CCCNc1n[nH]c(=O)[nH]c1=O	99.6
CCOC(=O)C1CCN(CC(O)COc2cccc(C)c2)CC1 (stereo unspecified)	97.9
COc1ccc(-n2c(CC#N)nnc2SCc2c(C)c(C)c(C)c(C)c2C)cc1	106.5
O=C(COC(=O)c1ccco1)NC12CC3CC(CC(C3)C1)C2	101.0
CC(C)NC(=O)c1ccc2ccccc2n1	100.8
CCCc1c(C)nc2c(C)cccc2c1SCCC(=O)O	100.1
COc1ccc(C(O)C(Nc2ccccc2)c2nc3ccccc3n2C)cc1 (stereo unspecified)	96.9
Cc1ccccc1N=Cc1c(O)[nH]c2ccccc12	99.6
NC(=O)CCCc1nc(-c2ccccc2)no1	115.0
Cc1ccccc1OCCC(=O)O	111.6
Cc1ccc(/C=C2\CC(C)CC3=C2NC(=S)NC3c2ccc(C)cc2)cc1 (stereo unspecified)	99.8
N=c1oc2ccccc2cc1C(=O)Nc1ccc(Cl)cc1Cl	100.9
CC(C)N1C(=O)/C(=C/c2cccc(Cl)c2Cl)SC1=S	69.5
O=C(NC(=S)N1CCCCC1)c1ccccc1	94.0
C=C1CC2(C)C(=CC1=O)CCC1C2CCC2(C)C(OC(=O)OCC)CCC12 (stereo unspecified)	102.8
Clc1ccc(-c2nnc(-c3ccc(Cl)cc3)o2)cc1	106.6
CCC(=O)Nc1ccccc1N1CCCC1	98.8
CCOC(=O)c1c(C)nn(-c2ncccc2C(F)(F)F)c1C	103.0
COc1ccc(-c2csc3ncnc(NCCO)c23)cc1	97.1
O=C(CC1CCCCC1)NCc1cn2ccsc2n1	93.3
CCN(CC)CCOCCOC(=O)C1(c2ccccc2)CCCC1	99.9
The listing continues:
SMILES	VACV E9 pol inh
Fc1ccccc1C1N(Cc2ccccc2)CCCN1Cc1ccccc1	99.8
CCOc1ccc(Oc2cc(C)nc(SC)n2)nn1	105.0
COC(=O)c1cc(C#N)c(SCC#N)nc1C(OC)OC	99.5
Cc1ccc(C(=O)N2CCC(C(=O)NC3CCCC3)CC2)cc1	97.2
Cc1nc(-c2c(C(F)(F)F)oc3cc(O)ccc3c2=O)cs1	100.5
Oc1ccc(C=NCC2CCCN3CCCCC23)c(O)c1 (stereo unspecified)	100.4
O=C(CN1C(=O)c2ccccc2S1(=O)=O)N1CCN(c2cccc(Cl)c2)CC1	99.8
O=C(NCCSc1c(-c2ccccc2)[nH]c2ccccc12)c1ccc(N2C(=O)CCC2=O)cc1	97.2
COc1ccc(N2CCN(Cc3nc4nc(C)cc(C)n4c3Br)CC2)cc1	99.9
Cc1ccc2cccc(OC(=O)c3ccc(C)c(C)c3)c2n1	97.6
CC1CC(C)CN(CCC(=O)Nc2ccccc2)C1 (stereo unspecified)	98.7
Cc1ccn2c(CO)c(-c3ccccc3)nc2c1	112.2
CSc1ccc(/C=C2/SC(=O)N(CNc3ccccc3)C2=O)cc1	96.0
COC(=O)c1c(C)nc(C)c2c(=O)oc3ccccc3c12	99.2
CC(=O)SC1CC(=O)N(c2ccc(C(C)(C)C)cc2)C1=O (stereo unspecified)	100.6
CCOC(=O)c1ncoc1-c1ccc(Cl)cc1Cl	100.7
COC(=O)C(OC)c1cc(C(C)(C)C)c(O)c(C(C)(C)C)c1 (stereo unspecified)	108.5
O=C(COC(=O)c1ccccn1)NC12CC3CC(CC(C3)C1)C2	107.0
CCOc1ccc2nc(-n3c(C)ccc3C)sc2c1	80.1
O=C(Cc1noc2ccccc12)NCc1cccc(Cl)c1	104.5
CC(C)(C)NC(=O)CN1C(=O)S/C(=C\c2ccccc2)C1=O	82.7
CN(C)CCCN1c2ccccc2CCc2ccccc21	99.4
Cn1c(=O)c2sccc2n2c(CCCC(=O)Nc3ccccc3)nnc12	117.5
CCCCN(Cc1ccco1)C(=O)c1cc2c(=O)oc3ccc(C)cc3c2s1	102.5
COC(=O)c1cc(S(=O)(=O)NCCc2ccccc2)cn1C	101.2
CCOC(=O)c1c(-c2ccccc2)oc2ccc(O)c(CN3CCOCC3)c12	98.6
CN(C)c1cccc2c(C#N)ccc(N(C)C)c12	106.3
CCOC(=O)C1=C(N)n2c(s/c(=C/c3ccco3)c2=O)=C(C(=O)OCC)C1c1ccco1 (stereo unspecified)	100.2
O=C(NCCc1nc2ccccc2[nH]1)C1CCCCC1	107.6
CCc1nnc(NC(=O)CC(=O)Nc2ccccc2C(=O)O)s1	100.1
CCCC(CCC)C(=O)O	102.5
CN(C)c1cccc2c(/C=N/O)ccc(N(C)C)c12	100.3
NC(=O)CC1SC(=O)N=C1N (stereo unspecified)	101.4
Cc1ccc(-n2cnc3cc(NC(=O)c4ccccc4)ccc32)cc1	100.2
O=C(Nc1cc(C(F)(F)F)ccc1N1CCCC1)Nc1cccc2ccccc12	125.7
CCCc1nc2ccccc2n1CC(=O)C(C)(C)C	103.2
O=C(CC1CC2CCC1C2)Nc1ccccc1I (stereo unspecified)	106.3
CCCc1nnc(SCC(=O)O)n1N	88.9
COC(=O)/C=C1/NCC(OC(=O)c2ccc(C(C)(C)C)cc2)CNC1=O (stereo unspecified)	96.6
C=CCNC(=O)c1c(N)n(C2CCCCC2)c2nc3ccccc3nc12	95.7

Reprinted at random: ten records from the list
SMILES	VACV E9 pol inh
CCCc1nnc(SCC(=O)O)n1N	88.9
C=CCNC(=O)c1c(N)n(C2CCCCC2)c2nc3ccccc3nc12	95.7
NC(=O)CC1SC(=O)N=C1N (stereo unspecified)	101.4
CCCc1nc2ccccc2n1CC(=O)C(C)(C)C	103.2
O=C(Nc1cc(C(F)(F)F)ccc1N1CCCC1)Nc1cccc2ccccc12	125.7
COC(=O)/C=C1/NCC(OC(=O)c2ccc(C(C)(C)C)cc2)CNC1=O (stereo unspecified)	96.6
CCCC(CCC)C(=O)O	102.5
Cc1ccc(-n2cnc3cc(NC(=O)c4ccccc4)ccc32)cc1	100.2
CN(C)c1cccc2c(/C=N/O)ccc(N(C)C)c12	100.3
O=C(CC1CC2CCC1C2)Nc1ccccc1I (stereo unspecified)	106.3

More entries.
SMILES	VACV E9 pol inh
Cc1cc(-c2ccc(S(=O)(=O)N3CCCC3)cc2)nc2ccccc12	102.1
COCC(C)NC(=O)c1cc(-c2cccs2)on1 (stereo unspecified)	100.1
CC(C)C(=O)N(Cc1ccccc1)c1ccccn1	100.4
COc1ccc(-c2nc3scc(-c4ccccc4)n3n2)cc1	106.8
COc1ccc(C(=O)c2nc3ccccc3n2C(C)C)cc1OC	100.3
Cc1c(C(=O)N(C)C2CCN(C)CC2)cnn1-c1ccc(Cl)cc1	94.6
Cc1ccc(NC(=O)COc2ccc3ccccc3c2Br)cc1F	98.8
CC1CC(N(CCC#N)S(=O)(=O)c2ccc(Br)cc2)CC(C)(C)C1 (stereo unspecified)	108.9
COc1ccc(O)c(-c2cnc(=S)[nH]c2-c2cc(OC)ccc2OC)c1	100.2
CCOC(=O)COc1c(Br)cc(Br)c2cccnc12	99.9
O=c1[nH]oc(O)c1-c1ccccc1	103.3
O=C1Nc2ccccc2S/C1=C/Nc1cccc(C(F)(F)F)c1	116.9
N#Cc1c(CCl)cc(=O)n2c1sc1ccccc12	90.6
Clc1cccc(OCCN2CCCC2)c1	96.4
COc1cccc(C(=O)Nc2sc3c(c2C(N)=O)CCC3)c1	95.5
CC1(C)C(C=C(Cl)Cl)C1C(=O)Nc1ccccc1 (stereo unspecified)	97.6
Cc1cc2nnc(SCC(=O)N3CCCC3)n2c2ccccc12	99.1
C=CCn1c(C(C)Oc2cccc(C)c2)nc2ccccc21 (stereo unspecified)	111.9
